KCNQ2 inh = KCNQ2 channel blockers in CHO-K1 cells – cell-based, FluxOR thallium flux, B-score, primary screen (AID 2156) | O88943 | 20 min; stronger effect = lower value; only compounds with negative scores are shown here; some inactives read as strong as hits | B-score at 10 µM | 310,000 compounds, 1.1% hits;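 active = fluorescence ratio B-score at most minus 3 library SDs, with starting brightness B-score within 2 library SDs, cut at about -5.5 in these data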
Target sequence (O88943 whole entry, looked up): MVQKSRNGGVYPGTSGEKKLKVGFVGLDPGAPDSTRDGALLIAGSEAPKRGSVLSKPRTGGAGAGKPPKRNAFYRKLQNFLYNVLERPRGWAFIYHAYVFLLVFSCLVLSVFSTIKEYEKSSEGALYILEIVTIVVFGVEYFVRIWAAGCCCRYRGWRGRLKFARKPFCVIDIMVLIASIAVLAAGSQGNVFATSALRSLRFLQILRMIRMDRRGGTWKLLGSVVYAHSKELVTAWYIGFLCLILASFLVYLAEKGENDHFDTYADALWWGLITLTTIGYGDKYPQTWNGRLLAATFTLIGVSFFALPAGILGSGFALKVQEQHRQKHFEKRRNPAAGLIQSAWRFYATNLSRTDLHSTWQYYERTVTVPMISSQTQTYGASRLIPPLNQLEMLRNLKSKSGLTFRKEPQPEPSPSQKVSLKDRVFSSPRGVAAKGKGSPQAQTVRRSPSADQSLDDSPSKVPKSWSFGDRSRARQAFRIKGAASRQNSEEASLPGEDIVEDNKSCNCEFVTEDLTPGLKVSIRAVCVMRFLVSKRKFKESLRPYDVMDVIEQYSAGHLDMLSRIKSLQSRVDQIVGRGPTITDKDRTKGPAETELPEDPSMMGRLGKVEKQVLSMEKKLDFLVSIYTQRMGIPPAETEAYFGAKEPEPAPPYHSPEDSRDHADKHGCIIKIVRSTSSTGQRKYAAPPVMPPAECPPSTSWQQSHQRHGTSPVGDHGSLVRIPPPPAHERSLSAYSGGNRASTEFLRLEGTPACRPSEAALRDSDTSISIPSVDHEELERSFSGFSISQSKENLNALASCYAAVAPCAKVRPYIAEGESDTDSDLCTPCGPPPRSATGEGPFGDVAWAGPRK
KCNQ2 inh baseline = further read-out of KCNQ2 inh, marked with its call; B-score; measured here: initial fluorescence intensity artifact check;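 brightness before thallium and not channel activity; 0 = typical well and far values either way flag optical interference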
* marks the source's active call; other numbers are inactive results; i = inactive. A portion of the library; rates above refer to the full screens.

Structure	KCNQ2 inh	KCNQ2 inh baseline
Cc1cccc(N(C(=O)c2snc(C(N)=O)c2N)C(C(=O)NC2CCCC2)c2ccncc2)c1 (stereo not drawn)	i	-0.6
COc1cc([N+](=O)[O-])ccc1NC(=O)NCc1cccnc1	i	2.8
Cc1ccc(C(=O)C2CCN(CC(=O)N3CCN(c4ccc(F)cc4)CC3)CC2)cc1	i	-0.66
CC1CC1C(=O)Nc1cc(C(F)(F)F)ccc1N1CCOCC1 (stereo not drawn)	i	0.02
O=C(NCC1CCCO1)C(c1cccs1)N(C(=O)Cn1nnc(-c2cccs2)n1)C1CCCC1 (stereo not drawn)	i	-0.19
CC(C)CCOc1cccc(OCC(=O)O)c1	i	1.1
O=C(CNS(=O)(=O)c1cccc(Cl)c1)OCc1csc(-c2ccccc2)n1	i	-1.2
CCOC(=O)CN(C(=O)CSc1nnc(C)n1-c1ccccc1)c1cccc([N+](=O)[O-])c1	i	-1.4
COc1ccccc1/C=N/N1CCN(Cc2ccccc2Cl)CC1	i	-0.2
CC(=O)OCC(=O)[C@@]1(O)CC[C@H]2[C@@H]3CCC4=CC(=O)CC[C@]4(C)[C@H]3C(=O)C[C@@]21C	i	-0.28
Fc1ccccc1N1CCN(C2CCCN(Cc3cccc(C(F)(F)F)c3)C2)CC1 (stereo not drawn)	i	0.27
COCCSc1ccccc1C(=O)NCCCn1ccnc1	i	1.1
Cc1ccc(Nc2nc(C(=O)N3CCC(C(=O)N4CCN(C)CC4)CC3)cs2)cc1	i	-0.52
C=Cc1ccc2c(c1)N(C)C(=C)S2	i	-0.16
COc1ccc(C)cc1NC(=O)C(c1ccccc1)N1CCNC(=O)C1 (stereo not drawn)	i	-1.7
O=C(Nc1ccc(N2CCOCC2)nc1)c1ccccc1Cl	i	-0.83
CCCS(=O)(=O)c1c(S(=O)(=O)CCC)c2cnccn2c1C(=O)c1ccc(OC)cc1	i	-0.69
COc1ccc(/C=C/C(=O)Nn2cnnc2)cc1	i	-2.3
CN1CCN(S(=O)(=O)c2ccc(NC(=O)c3ccc(Br)s3)cc2)CC1	i	-0.41
C=CCOc1ccc(/C=C(\C#N)C(=O)Nc2ccccn2)cc1OC	i	1.6
COC(=O)C1=C(C)NC(=O)NC1c1cn(-c2ccccc2)nc1-c1cccs1 (stereo not drawn)	i	-1
Cc1ccc2c(c1)NCC(C(=O)NC1CCC(C)CC1)O2 (stereo not drawn)	i	0.01
O=C(NNc1ccc(-c2csnn2)cc1)c1ccccc1C(F)(F)F	i	-2.4
Cc1nc(S(=O)(=O)N2CCOCC2)c(C#N)c(C)c1Cl	i	0.9
O=C(NCc1cccs1)C1CCCN(c2nc3ccccc3o2)C1 (stereo not drawn)	i	-1.5
COc1cccc(NC(=O)NC2CCCc3ccccc32)c1 (stereo not drawn)	i	0.07
CCn1c(CSc2nnc(-c3ccoc3C)n2C)nc2cc(S(=O)(=O)N(C)C)ccc21	i	-1.8
C=CCn1c(SCC(=O)NNC(=O)Nc2cccc(Cl)c2)nnc1-c1ccccc1	i	0.05
O=C(c1ccccc1Cl)N1N=C(c2ccc(Br)cc2)CC1c1nc2ccccc2[nH]1 (stereo not drawn)	i	0.02
NC(=O)c1ccc(NC(=O)COC(=O)c2cc(S(=O)(=O)N3CCOCC3)ccc2N2CCCCC2)cc1	i	-0.35
O=C(c1ccc(Cl)c(S(=O)(=O)N2CCCC2)c1)N1CCN(c2ccc(F)cc2)CC1	i	-0.05
CCCNC(=O)NNC(=O)c1ccc(F)cc1	i	-1.1
Nc1nc2ncc(-c3ccsc3)c(N)n2n1	i	0.09
COc1cccc(/C=N/NC(=O)C(=O)N2CCCCCC2)c1O	i	0.94
CCOC(=O)C1=C(C)NC(C)=C(C(=O)OCC)C1C(=O)OCC(=O)N(CC)C1CCS(=O)(=O)C1 (stereo not drawn)	i	0.31
COc1cccc(CN2CCNC(=O)C2CC(=O)N2CCCCO2)c1OC (stereo not drawn)	i	0.01
CC(Nc1cc(=O)n(C)c(=O)[nH]1)c1ccccc1 (stereo not drawn)	i	0.3
Cc1ccc(C)c(NS(=O)(=O)c2c(C)ccc3nsnc23)c1	i	-0.05
CCN1CC(CN(C)Cc2cn(-c3ccc(C)cc3)nc2-c2cccc(C)c2)CC1=O (stereo not drawn)	i	0.13
Cc1ccc(Cn2c(NCCc3ccccc3)nc3c2c(=O)n(C)c(=O)n3C)cc1	i	0.03
CCCNc1ccc(C(=O)OCC)cc1[N+](=O)[O-]	i	-0.49
Cc1ccc2[nH]c(C(=O)N3CCC(C(N)=O)CC3)cc2c1	i	0.5
O=C(NNc1ccccc1Br)C(O)(c1cccc(C(F)(F)F)c1)c1cccc(C(F)(F)F)c1	i	2.6
CC(C)(C)NC(=O)CN(Cc1cccs1)C(=O)c1csnn1	i	-0.67
COc1ccc(-n2ncc3c(SCC(=O)NNC(C)=O)ncnc32)cc1	i	-0.37
O=C(COc1ccccc1)NC1CCSc2ccccc21 (stereo not drawn)	i	0.41
Cc1cc(=O)[nH]c(NCCO)n1	i	-0.91
COc1ccc2cc(-c3ccon3)ccc2c1	i	0.02
CC(C)(C)c1ccc(S(=O)(=O)NCc2ccccn2)cc1	i	0.5
COc1ccc(C)cc1NC(=O)C(Sc1nnc(-c2cccs2)o1)c1ccccc1 (stereo not drawn)	i	0.26
CCOC(=O)C(C)n1cnc2c(nnn2-c2cccc(Cl)c2)c1=O (stereo not drawn)	i	-0.08
COc1ccc(/C=N/NC(=O)c2cccnc2)cc1CN1CCc2cc(OC)c(OC)cc2C1C (stereo not drawn)	i	-0.27
O=C(Oc1cccc2cccnc12)c1cccc(N2C(=O)C3C4CCC(C4)C3C2=O)c1 (stereo not drawn)	i	-1.4
Cc1ccccc1NC(=O)C1c2cccc[n+]2CC(=O)N1c1c(C)cccc1C (stereo not drawn)	i	0.41
COC(=O)CSc1nc(NC(C)(C)C)nc(N(C)C)n1	i	0.08
COc1ccc(OCC(=O)N2CCC(Cc3ccccc3)CC2)cc1	i	-0.25
CCCCn1c2c(c(=O)n(C)c1=O)C(CC(=O)OCC(=O)Nc1cccc(C(F)(F)F)c1)C(=O)N2 (stereo not drawn)	i	-1.1
CC1=C(C(=O)OCc2ccccc2)C(c2ccco2)C2=C(CC(C)(C)CC2=O)N1 (stereo not drawn)	i	1.4
COc1ccc(C)cc1NC(=O)CN1CCN(c2ccc(F)cc2)CC1	i	-0.52
COc1c(Br)cc(Br)cc1/C=N/NC(=O)c1cccnc1	i	1.8

Additional results
Structure	KCNQ2 inh	KCNQ2 inh baseline
Cc1cc(C(F)(F)F)cc(NNC(=O)NC(=O)c2c(F)cccc2Cl)n1	i	0.61
Cc1ccc(OCC(=O)NCCC2=CCCCC2)cc1	i	2
CC(C)N1CC2=C(C1=O)C(c1ccc(O)cc1)NC(=O)N2C (stereo not drawn)	i	-0.08
CC1(C)CC(=O)/C(=C(/O)Cc2ccccc2)C(=NCCc2ccccc2)C1	i	0.25
CCC(Sc1nc2ccncc2[nH]1)C(=O)Nc1ccc(C)c(Cl)c1 (stereo not drawn)	i	-1.2
O=C(COC(=O)CCCN=C1NS(=O)(=O)c2ccccc21)NNC(=O)c1ccccc1	i	-1.6
COc1cccc(/C=C/C(=O)OCC(=O)Nc2ccc(Cl)c(S(=O)(=O)N(C)C)c2)c1OC	i	-0.21
Cn1c(=O)cc(OCC(=O)NC2CCCCC2)c2ccccc21	i	-0.14
O=C(COc1ccc(Cl)cc1)Nc1ccc2oc(=O)ccc2c1	i	0.54
CC(=O)Nc1nc(C)c(-c2nc3ccc([N+](=O)[O-])cc3[nH]2)s1	i	-0.1
CCC(Cc1ccccc1)NC(=O)CN1C(=O)CSc2ncccc21 (stereo not drawn)	i	-1.1
N#Cc1c(N2C(=O)Nc3ccccc3N2O)sc2c1CCCC2	i	0.81
CCN(CC)S(=O)(=O)c1cc(OC)c(C)cc1C	i	-0.1
CCCCNS(=O)(=O)c1ccc(OC)c(Cl)c1Cl	i	-2
Cc1cc(C)c(C#N)c(Sc2nnnn2-c2ccccc2)n1	i	0.19
CC(C)(C)NC(=O)c1oc2ccccc2c1COc1ccccc1	i	1.2
COc1ccc(NCC(=O)N/N=C/C2CCCCC2)cc1	i	-0.52
CCOc1ccc(CNC(=O)c2ccc(NC(=O)C3=CSCCO3)cc2)cc1	i	0.82
COc1ccccc1N(C)S(=O)(=O)c1ccc(C(=O)NC(C)(C)C)cc1	i	1.4
Cc1c(N=Nc2ccc(O)cc2)c(=O)n(-c2ccccc2)n1C	i	-0.14
CC(C)Cn1c(N)c(C(=O)COC(=O)CCc2nc3ccccc3s2)c(=O)n(C)c1=O	i	-2.4
O=C(COC(=O)/C=C/c1ccc(C(F)(F)F)cc1)NC1CC1	i	0.7
CCOc1ccc(N(Cc2ccccc2F)C2=NC3CS(=O)(=O)CC3S2)cc1 (stereo not drawn)	i	0.24
COc1ccc(/C=N/Nc2ncnc(Cl)c2N)cc1OC	i	2.9
Cc1cc2occ(CC(=O)N(C)CC(=O)Nc3ccc(F)cc3)c2cc1C	i	0.75
Cc1[nH][nH]c(=O)c1C=NCc1cccc(C(F)(F)F)c1	i	-1.2
Nc1nc(Sc2c([N+](=O)[O-])cc(C(F)(F)F)cc2[N+](=O)[O-])n[nH]1	i	-1.4
Cc1cc(C)c(S(C)(=O)=O)c(Oc2ccc(C(C)(C)C)cc2)n1	i	-0.4
COc1ccc(CNC(=O)C2CC(=O)N(C3CCCCC3)C2)cc1 (stereo not drawn)	i	1.8
COC(=O)c1c(NC(=O)COC(=O)[C@@H](NS(=O)(=O)c2ccccc2)C(C)C)sc2c1CCC2	i	0.66
CC(c1ccco1)N(C(=O)C12CC3CC(CC(C3)C1)C2)c1ccccn1 (stereo not drawn)	i	1.1
CCOc1ccc(S(=O)(=O)N2CCN(C(=O)Cc3ccc(S(=O)(=O)N4CCOCC4)s3)CC2)cc1	i	0.96
Cc1ccc(NC(=O)CSCC(=O)Nc2nnc(C3CC3)s2)cc1	i	-1.3
CCOc1ncccc1C(=O)NCc1cccc(OC)c1	i	1.4
Cc1cc(NC(=O)c2cccc([N+](=O)[O-])c2)no1	i	0.38
CCOC(=O)c1c(-c2cccc(N)c2)cn2ccccc12	i	-0.56
Cc1ccc(NC(=O)c2snc3ccc(Cl)cc23)cc1C	i	-0.22
Cc1ccc(S(=O)(=O)N(Cc2ccccc2)Cc2ccco2)cc1	i	-0.07
CCOc1ccc2ccccc2c1C(=O)N1CCN(c2ccccc2)CC1	i	-1.7
COC(=O)c1cc(=O)n(Cc2ccc(F)cc2)c(=Nc2ccccc2)s1	-5.8*	-0.31*
COc1ccc(C(=O)/C=C/c2ccc(N3CCCCC3)c([N+](=O)[O-])c2)c(OC)c1	i	1.2
Cc1ccc(-c2nc(C(=O)NCC3CCCO3)cc3c2[nH]c2ccccc23)cc1 (stereo not drawn)	-12*	-3*
O=C(CN1CCN(C(=O)c2cccs2)CC1)Nc1ccc(Br)cc1	i	-1.1
N#CC1(NC(=O)COC(=O)c2ccccc2[N+](=O)[O-])CCCCC1	i	-0.29
COCCCNC(=O)C1CCN(c2nc(C)cc(C)n2)CC1	i	-1.6
Cc1cc(NCCCN2CCOCC2)n2c(nc3ccccc32)c1C#N	i	-0.61
O=C(Nc1ccc(Cl)cc1C(F)(F)F)C(Sc1nnc(-c2cccs2)o1)c1ccccc1 (stereo not drawn)	i	-0.71
COc1cc(NC(=O)CSc2nc3c(c(=O)n(C)c(=O)n3C)n2C)cc(OC)c1	i	-0.11
Cc1c(OCc2ccccc2)cccc1OCc1ccccc1	i	0.39
CC(=O)Nc1ccc(/C=C/c2nc3ccccc3[nH]c2=O)cc1	i	0.11
CCc1ccccc1NC(=O)c1cnn(-c2ccccc2)c1C	i	-0.73
CN(C)S(=O)(=O)c1ccc(C(=O)NCC2CC2(Cl)Cl)cc1 (stereo not drawn)	i	-1.5
Cc1c(C(=O)Nc2cccc(-c3nnc4n3CCCCC4)c2)oc2ccccc12	i	-0.7
Cc1cc(=O)[nH]c(Nc2ccc(Cl)cc2)n1	i	0.71
CC12CCC(c3c(C(=O)N4CCOCC4)nn(-c4ccccc4)c31)C2(C)C (stereo not drawn)	i	-1.4
CCOC(=O)CNc1c(-c2ccc(O)cc2)nc2ccc(Cl)cn12	-5.7*	-2.5*
CC(C)NC(=O)c1ccccc1NC(=O)c1ccccc1N(C)S(C)(=O)=O	i	-1.4

Assay outcomes from PubChem.
